T cruzi inh = inhibitors of intracellular T. cruzi growth, primary screen, luminescence, NIH3T3 host cells. T. cruzi beta-gal in NIH3T3, 90 h. inhibition, % (no concentration beside the values). actives 1.4% (n = 300,000). AID 1885, 2009;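 active = mean inhibition across valid replicates above about 55%, limit read from the data; inconclusive = mean below that limit but half or more replicates reach it; inactive = mean below it, under half of replicates reach it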;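 note: signal also drops with host cell toxicity which is not excluded here; 0% = plate median of DMSO wells and 100% = zero luminescence signal; higher percent means less beta-gal luminescence so fewer parasites; stock transfer was 50 nL into about 50 µL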
LANA-H2A inh = blockers of LANA interaction with H2A/H2B – biochemical, FP readout, HTS, primary screen | Protein LANA1 (Human herpesvirus 8 type P (isolate GK18)), Q9QR71 | cell-free LANA-H2A/H2B peptide, fluorescence polarization | inhibition, % (test concentration not listed) | actives 0.6% (n = 320,000) | AID 2629, 2010; in the data active = inhibition mostly above about 10%, no sharp cut-off; inactive = mostly below about 6.7%;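 note: stock transfer was 7.5 nL into about 10 µL; 0% = median of vehicle wells and 100% = median of positive control wells; one replicate is shown; the record names a cut of 25% in any replicate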
B2AR ag = beta2AR agonists driving receptor internalization, primary screen, cell-based, FAP fluorogen, flow cytometry; response, % (test concentration not listed); actives 0.43% (n = 340,000); Beta-2 adrenergic receptor (Homo sapiens), P07550; Am2.2-beta2AR cells; reference of the scale not given here;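 active = response above a set limit, near 3 SD of response in nonfluorescent compounds, cut at about 42% in these data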;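 note: stock transfer was 100 nL into about 11 µL; a reference agonist was the positive control; negative values mostly stem from fluorescent compounds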
Target sequence (P07550 whole entry, looked up): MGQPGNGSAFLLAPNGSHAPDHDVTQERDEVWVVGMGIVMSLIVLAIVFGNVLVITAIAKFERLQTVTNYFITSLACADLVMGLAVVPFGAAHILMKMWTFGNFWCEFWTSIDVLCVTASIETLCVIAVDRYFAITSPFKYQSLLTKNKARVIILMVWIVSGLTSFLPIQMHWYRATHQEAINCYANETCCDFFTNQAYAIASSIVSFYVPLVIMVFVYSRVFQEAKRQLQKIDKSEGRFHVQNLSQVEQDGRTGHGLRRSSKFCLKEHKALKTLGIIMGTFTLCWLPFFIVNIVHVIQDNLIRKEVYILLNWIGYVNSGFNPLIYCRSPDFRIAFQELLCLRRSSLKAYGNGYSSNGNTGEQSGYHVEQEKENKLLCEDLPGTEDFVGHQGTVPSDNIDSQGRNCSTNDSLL
Beta apoptosis = inhibitors of cytokine-induced beta cell apoptosis, primary screen, luminescence. INS-1E cytokine-induced death, ATP luminescence, 48 h; percent of positive-control rescue, neutral wells zero. protection from apoptosis, % (no concentration beside the values). actives 0.8% (n = 300,000);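 active = all replicates at 75% or more, or half of them and the mean; inconclusive = half reach 75% but not the mean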;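 note: 0% = cytokine-treated negative control wells and 100% = positive control rescue; higher means more ATP so stronger rescue from cytokine killing; wells of about 40 µL received 100 nL stock; the first replicate is given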
A1 inh = caspase 3/7 activation in MEF A1-2A-BIM cells, primary screen, A1 inhibitor project, cell-based, luminescence, HTS | Caspase-Glo 3/7 luminescence, 3 h; percent of clofoctol response, vehicle zero | caspase activation, % (concentration not given with the values) | actives 0.066% (n = 330,000);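 active = over half of replicate activation scores above 10%, or exactly half above 10 with the replicate mean above 10; inconclusive = replicate mean below 10 yet half the replicates above 10; inactive = over half of replicates below 10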;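 note: wells of about 30 µL received 50 nL stock; many hits fall short of the cut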
ALR H2O2 inh = inhibitors of human ALR sulfhydryl oxidase, primary screen, biochemical, H2O2 detection, HRP-luminol luminescence, single point. FAD-linked sulfhydryl oxidase ALR (Homo sapiens), P55789. purified ALR, DTT oxidation. inhibition, % (test concentration not listed). actives 3.8% (n = 290,000);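 active = mean and each replicate at 75% or more; inconclusive = only one of the two met; inactive = neither met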;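 note: stock transfer was 7.5 nL into about 7.5 µL; 0% = neutral wells and 100% = wells with inactivated enzyme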
Target sequence (P55789 whole entry, looked up): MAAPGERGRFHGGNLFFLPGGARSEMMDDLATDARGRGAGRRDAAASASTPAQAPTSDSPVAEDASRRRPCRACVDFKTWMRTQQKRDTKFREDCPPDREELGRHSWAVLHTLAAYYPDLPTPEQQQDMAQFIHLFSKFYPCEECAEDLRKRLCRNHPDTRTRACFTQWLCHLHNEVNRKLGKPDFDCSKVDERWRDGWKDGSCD
Ecoli rRNA inh = reduced GFP signal of wild-type E. coli, primary screen, bacterial rRNA inhibitor project, GFP/RFP fluorescence, OD600, single point. actives 1.6% (n = 350,000). AID 720706, 2013. E. coli WT GFP vs humanized-ribosome RFP mutants, 24 h; hits give low values; DMSO median 0, no signal -100. GFP signal change (wild-type ribosome), % (concentration not given with the values);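 active = significant combined selectivity score with lowered wild-type GFP, culture density cut under 30%, mutant RFP and density less affected; inactive = any of these conditions unmet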; note: one replicate is shown; some compounds called inactive have numbers as strong as hits
Calb FLC = C. albicans growth inhibition with fluconazole, primary screen, CaCi-2 strain, Alamar Blue fluorescence; C. albicans CaCi-2 (fluconazole-resistant clinical isolate) + fluconazole, 48 h; growth inhibition, % (test concentration not listed); actives 0.57% (n = 300,000); AID 1979, 2009;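 active = most replicates above 75%; inconclusive = exactly half above 75%; inactive = most below 75%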;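 note: all wells also contain fluconazole at 8 µg/ml as a sub-toxic cotreatment; 0% = median of DMSO wells and 100% = median of geldanamycin control wells; wells of about 8 µL received 7.5 nL stock; the first replicate is given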
Ecoli rRNA inh OD600 = also measured in Ecoli rRNA inh; calls as there; OD600 change, %; measured here: OD600 growth;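 optical density of the mix in the first replicate; 0 = DMSO median and -100 = no signal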
Ecoli rRNA inh RFP = further read-out of Ecoli rRNA inh, marked with its call; RFP signal change, %; measured here: RFP humanized mutant strains;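 first replicate; 0 = DMSO median and -100 = no signal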
* = called active by the depositor.

What do the screens show for `Cc1cc(NC(=O)CCC(=O)N(CC(=O)NC2CCCC2)c2ccc(F)cc2)no1`?
T cruzi inh: 6; LANA-H2A inh: -2.9; B2AR ag: -10; Beta apoptosis: -9; A1 inh: 0.7; ALR H2O2 inh: -2; Ecoli rRNA inh: 3; Calb FLC: 5; Ecoli rRNA inh OD600: 4; Ecoli rRNA inh RFP: -0.3

What do the screens show for `CC1=C(C(=O)Nc2cc(C)ccn2)C(c2ccc(C)cc2)C2=C(CCCC2=O)N1` (stereo unspecified)?
T cruzi inh: 16; LANA-H2A inh: 0.5; B2AR ag: -12; Beta apoptosis: -4; A1 inh: 0.9; ALR H2O2 inh: -6; Calb FLC: -3

What do the screens show for `O=C(Nc1cccc2ccccc12)N1CCOCC1`?
T cruzi inh: -8; LANA-H2A inh: 2.4; B2AR ag: -5; Beta apoptosis: 5; A1 inh: 0.2; ALR H2O2 inh: 2; Calb FLC: -5

What do the screens show for `CC(=O)Oc1ccccc1-c1nc(/C=C/c2ccccc2)no1`?
T cruzi inh: 7; LANA-H2A inh: -8.9; B2AR ag: -5; A1 inh: -4.6; ALR H2O2 inh: -2; Ecoli rRNA inh: 0; Calb FLC: 6; Ecoli rRNA inh OD600: -12; Ecoli rRNA inh RFP: 1.3

How did O=C(Nc1ccc(F)cc1F)C1(c2cccs2)CCOCC1 do in these assays?
T cruzi inh: 6; LANA-H2A inh: -1.0; B2AR ag: 3; Beta apoptosis: 0; A1 inh: 0.6; ALR H2O2 inh: 1; Ecoli rRNA inh: 3; Calb FLC: 30; Ecoli rRNA inh OD600: 8; Ecoli rRNA inh RFP: 1.8

Results for COc1ccc(CCNC(=O)Cn2nnc(-c3cccc(OC)c3OC)n2)cc1OC ?
T cruzi inh: -22; LANA-H2A inh: 0.1; B2AR ag: 5; Beta apoptosis: -3; A1 inh: -0.9; ALR H2O2 inh: -5; Ecoli rRNA inh: 0; Calb FLC: -1; Ecoli rRNA inh OD600: -1; Ecoli rRNA inh RFP: 0.3

How did O=C(NCC(=O)N1CCC2(CC1)NCCc1[nH]cnc12)c1ccccc1F do in these assays?
T cruzi inh: 0; LANA-H2A inh: 1.1; B2AR ag: 2; Beta apoptosis: -7; A1 inh: 0.0; ALR H2O2 inh: -10; Ecoli rRNA inh: 4; Calb FLC: 7; Ecoli rRNA inh OD600: 9; Ecoli rRNA inh RFP: -1.9

How did O=C(COC(=O)CNC(=O)c1ccc(Cl)cc1)Nc1ccc2c(c1)OCCO2 do in these assays?
T cruzi inh: 12; LANA-H2A inh: -3.3; B2AR ag: 3; Beta apoptosis: -7; A1 inh: 0.7; ALR H2O2 inh: -2; Calb FLC: -16

What do the screens show for `CCOC(=O)Cc1csc(NC(=O)CN2C(=O)c3ccccc3C2=O)n1`?
T cruzi inh: -11; LANA-H2A inh: 0.0; B2AR ag: 4; Beta apoptosis: -18; A1 inh: 0.3; ALR H2O2 inh: -3; Ecoli rRNA inh: 2; Calb FLC: -1; Ecoli rRNA inh OD600: 14; Ecoli rRNA inh RFP: -2.5

How did O=C(Nc1ccc(SC(F)(F)F)cc1)c1ccccn1 do in these assays?
T cruzi inh: 19; LANA-H2A inh: 1.9; B2AR ag: 7; Beta apoptosis: -3; A1 inh: -6.2; ALR H2O2 inh: 0; Ecoli rRNA inh: 1; Calb FLC: -20; Ecoli rRNA inh OD600: 4; Ecoli rRNA inh RFP: 1.3

What do the screens show for `CCNc1nc(Oc2ccc(C(=O)OCC)cc2)nc(SC)n1`?
T cruzi inh: -3; LANA-H2A inh: -0.1; B2AR ag: 0; Beta apoptosis: 3; A1 inh: 0.8; ALR H2O2 inh: -15; Calb FLC: -4

What do the screens show for `O=S(=O)(/C=C/c1ccccc1)NCc1ccccc1Cl`?
T cruzi inh: 2; LANA-H2A inh: -1.5; B2AR ag: 67*; Beta apoptosis: 1; A1 inh: 0.6; ALR H2O2 inh: -2; Ecoli rRNA inh: -33; Calb FLC: -1; Ecoli rRNA inh OD600: -58; Ecoli rRNA inh RFP: -3.4

Results for COc1ccc(C2=NS(=O)(=O)N(C)C(C(=O)N3CCOCC3)=C2)cc1 ?
T cruzi inh: -2; LANA-H2A inh: -3.0; B2AR ag: -2; Beta apoptosis: -3; A1 inh: -0.2; ALR H2O2 inh: -1; Ecoli rRNA inh: 4; Calb FLC: -3; Ecoli rRNA inh OD600: 8; Ecoli rRNA inh RFP: -5.6

Results for COc1ccc(C(=O)N2CCN(C(=O)c3ccncc3)CC2)cc1 ?
T cruzi inh: -10; LANA-H2A inh: -3.8; B2AR ag: -2; Beta apoptosis: -4; A1 inh: -0.9; Calb FLC: -4

What do the screens show for `COc1ccccc1NC(=O)Cn1c(=O)oc2cc(S(=O)(=O)N3CCCC3)ccc21`?
T cruzi inh: -7; LANA-H2A inh: -4.1; B2AR ag: 5; Beta apoptosis: -2; A1 inh: 0.7; ALR H2O2 inh: -3; Ecoli rRNA inh: 2; Calb FLC: 5; Ecoli rRNA inh OD600: 12; Ecoli rRNA inh RFP: 2.2

Results for Cc1csc(NC(CO)c2nc3ccccc3n2CCOCCO)n1 (stereo unspecified) ?
T cruzi inh: -16; LANA-H2A inh: 5.2; B2AR ag: -3; Beta apoptosis: -14; A1 inh: 0.9; ALR H2O2 inh: 30; Ecoli rRNA inh: 0; Calb FLC: -5; Ecoli rRNA inh OD600: -1; Ecoli rRNA inh RFP: 0.8

How did C=CCn1c(-c2cccc3ccccc23)n[nH]c1=S do in these assays?
T cruzi inh: -5; LANA-H2A inh: 0.4; B2AR ag: -9; Beta apoptosis: -7; A1 inh: -0.3; ALR H2O2 inh: inconclusive; Calb FLC: -16

How did Cc1cccc(OCc2nnc(SCC(=O)O)n2Cc2ccccc2)c1 do in these assays?
T cruzi inh: -19; LANA-H2A inh: 9.5; B2AR ag: -2; Beta apoptosis: -7; A1 inh: 0.3; Ecoli rRNA inh: 0; Calb FLC: 23; Ecoli rRNA inh OD600: -2; Ecoli rRNA inh RFP: -5.4

Results for C/C(=N\NC(=O)CC#N)C1COc2ccccc2O1 (stereo unspecified) ?
T cruzi inh: -10; LANA-H2A inh: 0.3; B2AR ag: -4; Beta apoptosis: -3; A1 inh: 0.2; ALR H2O2 inh: 4; Ecoli rRNA inh: 12; Calb FLC: -18; Ecoli rRNA inh OD600: 0; Ecoli rRNA inh RFP: 3.8

What do the screens show for `Cc1ccc(C)c(NS(=O)(=O)c2cc(C(=O)NCc3ccco3)ccc2C)c1`?
T cruzi inh: 10; LANA-H2A inh: -2.1; B2AR ag: 3; Beta apoptosis: -3; A1 inh: -0.8; ALR H2O2 inh: 0; Calb FLC: 36

Results for CCCCCSc1nc(C)c(CC(=O)O)c(=O)[nH]1 ?
T cruzi inh: 5; LANA-H2A inh: -0.1; B2AR ag: -2; Beta apoptosis: 0; A1 inh: 1.3; ALR H2O2 inh: -1; Calb FLC: 8

How did C1CN(c2nc3nonc3n3nnnc23)CCO1 do in these assays?
T cruzi inh: -12; LANA-H2A inh: 4.7; B2AR ag: 6; Beta apoptosis: -3; A1 inh: -0.6; Calb FLC: 9

Results for COc1ccc(S(=O)(=O)N2CCN(CC(=O)Nc3ccc(F)c(F)c3)CC2)cc1 ?
T cruzi inh: -1; LANA-H2A inh: -4.8; B2AR ag: -4; Beta apoptosis: 1; A1 inh: 1.3; ALR H2O2 inh: -7; Calb FLC: -2

How did CC(NC(=O)CN(C)S(=O)(=O)c1cccc2nsnc12)c1ccccc1 (stereo unspecified) do in these assays?
T cruzi inh: 8; LANA-H2A inh: 1.3; B2AR ag: 8; Beta apoptosis: 1; A1 inh: 0.7; ALR H2O2 inh: -3; Ecoli rRNA inh: 10; Calb FLC: -1; Ecoli rRNA inh OD600: 3; Ecoli rRNA inh RFP: 1.7

How did Cc1ccc(C(=O)NCCCn2ccnc2)cn1 do in these assays?
T cruzi inh: -11; LANA-H2A inh: 2.3; B2AR ag: -1; Beta apoptosis: -7; A1 inh: 1.2; ALR H2O2 inh: -2; Calb FLC: -16

How did Cc1cc(C)cc(OCc2nnc(N)s2)c1 do in these assays?
T cruzi inh: -3; LANA-H2A inh: -2.4; B2AR ag: 2; Beta apoptosis: -5; A1 inh: 1.0; ALR H2O2 inh: -2; Ecoli rRNA inh: 10; Calb FLC: -2; Ecoli rRNA inh OD600: 4; Ecoli rRNA inh RFP: -1.4

How did Fc1ccc(/C=N/c2c(-c3ccc(F)cc3)nc3n2CCS3)cc1 do in these assays?
T cruzi inh: -3; B2AR ag: -16; Beta apoptosis: -7; A1 inh: -0.5; Calb FLC: -3

How did CCc1ccc(N2C(=O)C3NN=C(C(=O)OCc4ccccc4)C3C2=O)cc1 (stereo unspecified) do in these assays?
T cruzi inh: -6; LANA-H2A inh: 5.6; B2AR ag: 1; Beta apoptosis: 3; A1 inh: -0.3; ALR H2O2 inh: 1; Calb FLC: 9

What do the screens show for `Cn1c(=O)c2c(nc(Cl)n2CCOc2ccccc2)n(C)c1=O`?
T cruzi inh: -6; LANA-H2A inh: 2.6; B2AR ag: 0; Beta apoptosis: 3; A1 inh: 0.6; ALR H2O2 inh: 0; Ecoli rRNA inh: 3; Calb FLC: -6; Ecoli rRNA inh OD600: -2; Ecoli rRNA inh RFP: 2.7

Results for Cc1ccccc1NC(=S)NNC(=O)c1csc2c1CCC(C)C2 (stereo unspecified) ?
T cruzi inh: 3; LANA-H2A inh: 4.8; B2AR ag: -19; Beta apoptosis: 7; A1 inh: 0.6; ALR H2O2 inh: 21; Calb FLC: -6

What do the screens show for `COCC1CCN(Cc2nc(-c3cccs3)no2)C1` (stereo unspecified)?
T cruzi inh: 4; LANA-H2A inh: -6.8; B2AR ag: 2; A1 inh: -0.1; ALR H2O2 inh: -5; Ecoli rRNA inh: 34; Calb FLC: -7; Ecoli rRNA inh OD600: -1; Ecoli rRNA inh RFP: -3.0

What do the screens show for `COc1ccc(CCn2c(=O)[nH]c3cc(C(=O)N4CCN(c5ccccn5)CC4)ccc3c2=O)cc1OC`?
T cruzi inh: -17; LANA-H2A inh: 2.8; B2AR ag: 1; Beta apoptosis: 8; A1 inh: 0.2; ALR H2O2 inh: -14; Ecoli rRNA inh: 21; Calb FLC: 3; Ecoli rRNA inh OD600: 13; Ecoli rRNA inh RFP: 3.4

Source: PubChem

Only part of the results is shown; the hit share may differ from the screen's.
